Mtb bLac sens – beta-lactam sensitization of Mtb H37Rv; inhibition, % at 25 µM; 330,000 tested, 0.27% active; M. tuberculosis H37Rv growth with meropenem, percent inhibition; hits of this screen are not shown here;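 active = about 74% or more and at least 40 points above the plate without the antibiotic, then above 30% in a dose series; inconclusive = first-round hits that could not be retested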;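 note: growth measured after seven days incubation then overnight dye step; 0% = bacteria only wells and 100% = bacteria with antibiotic; twin plates without the antibiotic show which effects depend on it; some results filed as inactive read as strong as hits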
YopH inh – YopH (Yersinia) phosphatase inhibition; 140,000 tested, 0.16% active; fluorescence Ex485/Em525; inhibition, %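 (about 10 µM by stock and volumes)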;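 active = inhibition of 50% or more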;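 note: controls were vehicle for no effect and minimum signal wells for full effect; inactives centre near -20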
RecA intein inh – inhibitors of M. tuberculosis RecA intein splicing. 290,000 tested, 0.75% active. cell-free RecA intein splicing, fluorescence. AID 2221. inhibition, %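 (about 9 µM by stock and volumes)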; in the data active = inhibition above about 30%; inconclusive = no clear call, values can overlap the other calls;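 note: 0% = vehicle wells and 100% = reference inhibitor control wells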
Target sequence (P9WHJ3 whole entry, looked up): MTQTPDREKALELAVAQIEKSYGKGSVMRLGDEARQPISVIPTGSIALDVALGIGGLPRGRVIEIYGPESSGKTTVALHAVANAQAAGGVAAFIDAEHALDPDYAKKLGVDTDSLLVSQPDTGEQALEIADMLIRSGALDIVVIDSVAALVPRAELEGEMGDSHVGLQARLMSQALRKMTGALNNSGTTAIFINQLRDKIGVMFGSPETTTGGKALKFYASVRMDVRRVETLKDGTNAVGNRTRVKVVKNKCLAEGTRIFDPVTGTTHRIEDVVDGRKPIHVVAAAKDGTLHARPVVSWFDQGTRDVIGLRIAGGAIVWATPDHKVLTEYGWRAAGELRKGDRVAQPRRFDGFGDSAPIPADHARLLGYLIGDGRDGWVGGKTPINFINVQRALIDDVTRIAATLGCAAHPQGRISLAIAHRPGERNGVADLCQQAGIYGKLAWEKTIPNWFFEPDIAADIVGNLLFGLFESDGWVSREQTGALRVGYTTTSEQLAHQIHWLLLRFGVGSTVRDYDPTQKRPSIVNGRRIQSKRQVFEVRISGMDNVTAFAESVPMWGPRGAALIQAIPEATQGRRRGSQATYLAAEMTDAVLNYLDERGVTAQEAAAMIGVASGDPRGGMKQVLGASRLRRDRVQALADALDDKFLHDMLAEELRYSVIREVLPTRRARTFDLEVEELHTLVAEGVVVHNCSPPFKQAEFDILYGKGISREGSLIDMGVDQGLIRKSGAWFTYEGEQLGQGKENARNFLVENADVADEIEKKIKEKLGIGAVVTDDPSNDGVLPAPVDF
Mtb growth – M. tuberculosis H37Rv growth inhibitors, H37Rv strain (AID 1626) | M. tuberculosis H37Rv growth inhibition; higher % means a stronger effect | 220,000 tested, 0.95% active | one-dose inhibition, % at 10 µM; IC50 in µM for titrated hits;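 active = confirmed in a dose series; inconclusive = inhibition above 80% but not taken into the dose series; inactive = below 80% or under 30% at every dose of the series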;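 note: bacteria incubated seven days before Alamar blue readout; 0% = bacteria only wells and 100% = bacteria with antibiotic wells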
Arbovirus inh – blocks arbovirus infection | AID 1251 | inhibition, % at 10 µM | arbovirus infection cell-based antiviral screen | 200,000 tested, 0.37% active;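 active = inhibition from about 30%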;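 note: bluetongue infection of BSR cells; cell survival read as ATP light after 72 h; 0% = infected wells without compound and 100% = uninfected wells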
Arbovirus inh repeat – second read-out of Arbovirus inh, no call of its own (marks repeat the call); inhibition, %; measured here: 10K subset replicate screen; many hits read low in the repeat;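 first of two repeat runs on a subset; 0% = infected and 100% = uninfected wells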
* hit, by the source's call; ? = inconclusive; / = not tested or not shown.

SMILES	Mtb bLac sens	YopH inh	RecA intein inh	Mtb growth	Arbovirus inh	others
Cc1c(Cl)cccc1NC(=O)CSc1nnc(CCNC(=O)OC(C)(C)C)o1	-13	-23	7.7	-5%	10
CN(C)C1(c2nnnn2-c2ccc(Cl)cc2)CCCCC1	-2	-31	1.4	0%	-4	Arbovirus inh repeat=8
COc1ccc(-c2nnc(N(C)C(=O)C3CCOC3)s2)cc1 (stereo not drawn)	-7	32	-2.0	-1%	-6
Cc1ccc(-n2nc3c(N4CCC(C(=O)NCc5ccccc5C)CC4)nnc(C)c3c2C)cc1	97	/	2.7	/	/
O=C(NNC(=S)Nc1ccccc1)c1cccnc1	-5	/	-4.0	/	/
Cc1sc2nc(CSCC(=O)Nc3c(Cl)cccc3Cl)[nH]c(=O)c2c1C	5	-14	-4.5	2%	-3
O=C(O)c1ccc2c3c(cccc13)C(=O)N(OS(=O)(=O)c1ccccc1)C2=O	-1	/	5.8	-5%	5
O=C(Nc1ccc(S(=O)(=O)NC2=NCCCCC2)cc1)c1ccc(C(F)(F)F)cc1	-5	/	1.2	3%	/
COC(=O)c1sc(NC(=S)NNC(=O)c2c(Br)c(C)nn2C)c(C(=O)OC)c1C	-6	/	5.5	/	/
COc1cccc(/C=N/n2c(-c3n[nH]c4c3CCC4)n[nH]c2=S)c1O	-3	-11	-0.7	-4%	-19
COc1ccc(CCNC(=O)CCCn2c(=O)c3cccn3c3cccnc32)c(OC)c1OC	-7	/	1.5	/	/
COc1ccc(Cl)cc1C(=O)NNC1CC(=O)N(Cc2ccc(Cl)cc2)C1=O (stereo not drawn)	0	-28	1.4	2%	-4
COc1cc(/C=N/O)ccc1OCc1ccc(Cl)cc1	62	/	1.2	1%	0
CCN1C(=O)[C@H]2[C@@H](c3ccc(-c4ccc(OC)cc4)cc3)N[C@@](C)(C(=O)OC)[C@H]2C1=O	-6	/	19	/	/
CCOc1ccc2ccccc2c1C1NC(=O)N(C)C(C)=C1C(=O)OCCOC (stereo not drawn)	-1	/	-1.9	/	/
C/C(=N/NC(=O)CNC(=O)c1cccnc1)c1cccc([N+](=O)[O-])c1	-5	/	-1.9	-2%	1
COc1ccc(C2CC(c3ccc(OC)cc3)n3nc(NS(C)(=O)=O)nc3N2)cc1 (stereo not drawn)	1	/	-0.6	-5%	/
CCN1CCN(C(=O)CN(c2cc(OC)ccc2OC)S(C)(=O)=O)CC1	1	-32	-6.9	-4%	11
CCC(=O)c1ccc(OCC(=O)N(C)CC(=O)Nc2cccc(F)c2)cc1	0	/	-2.5	-7%	5
O=C(CN1C(=O)C2C3C=CC(C4CC34)C2C1=O)Nc1cccc2ncccc12 (stereo not drawn)	-2	/	9.6	-10%	-1
COc1ccc(/C=N/n2c(C)nnc2C)c(OC)c1OC	-12	-25	0.7	-9%	2
O=C(O)c1cccc(NC(=O)c2cn(-c3ccccc3)nc2-c2cc3ccccc3o2)c1	6	-11	-7.9	2%	23
CCc1ccc(OCC(=O)NNC(=O)Cc2cccs2)cc1	-1	-23	2.6	6%	-3
CCN(CC(=O)Nc1c(F)cccc1F)C(=O)c1ccc(COc2ccccc2)cc1	0	/	4.2	/	/
OCC[C@@H]1C[C@H](O)[C@@H](O)[C@@]2(OCc3ccccc32)O1	-5	/	-4.4	/	/
Cc1cccc(NC(=O)CCC2CCN(Cc3nccs3)CC2)c1	-2	/	-11	/	/
COC(=O)Cc1ccc(NC(=S)NCc2ccccc2Cl)cc1	-8	-29	8.4	6%	-12
Cn1c(=O)c2c(ncn2Cc2ccc(Cl)c(Cl)c2)n(C)c1=O	-2	-86	1.6	3%	-27
Clc1ccc(CO/N=C/c2c(-c3ccccc3)nc3n2CCS3)c(Cl)c1	76	-50	1.6	-1%	10
CCO/N=C(/c1nonc1N)N1CCN(c2ccc([N+](=O)[O-])cc2)CC1	-10	-4	-1.5	6%	2
Cc1cc(C)cc(-n2c(C)c3c(C)nnc(C)c3c2C)c1	?	-19	-9.0	1%	8
CC1CN(C(=O)CCCN2C(=O)c3ccccc3C2=O)CC(C)O1 (stereo not drawn)	0	/	-2.6	/	/
C=C1c2cc(C)ccc2NC(=O)N1c1ccccc1	-2	-35	/	-5%	-6
COc1ccc(S(=O)(=O)Oc2cccc(/C=N/N=C3/NC(=O)C(CC(=O)O)S3)c2)cc1 (stereo not drawn)	-2	/	-0.6	3%	-1
Cc1ccc(NC(=O)CCC(=O)NNC(=O)c2ccco2)cc1C	88	-1	1.1	66%	-1
Cc1cccc(NCC(=O)N/N=C\c2c[nH]c3ccccc23)c1	6	/	1.9	6%	-9
CCc1nc(Nc2ccc(F)cc2)c2oc3ccccc3c2n1	44	/	-0.9	/	/
COCCN1Cc2cccc(C(=O)Nc3c(C)cccc3C)c2C1=O	-2	-27	0.6	0%	1
Cc1ccc(S(=O)(=O)N2CCCOC2CNC(=O)C(=O)NC2CCCC2)cc1 (stereo not drawn)	3	/	-0.9	/	/
CCC12CN3CC(CC)(CN(C1)C3c1c(O)ccc3ccccc13)C2=O (stereo not drawn)	/	-26	1.8	-4%	9
COc1ccccc1C(=O)NNC(=O)c1ccncc1	-9	/	-0.6	3%	5
Cc1ccccc1-c1nc(C#N)c(N2CCCCC2)o1	-5	/	8.8	/	/
COc1ccc(/C=C/C(=O)NC(=S)NNC(=O)c2cccnc2)cc1	3	-17	-0.4	10%	0
Cc1nc(NC(=O)C23CC4CC(CC(C4)C2)C3)sc1Cc1ccc2c(c1)OCO2	11	-15	4.5	7%	5
Oc1cccc(Oc2ncc(C(F)(F)F)cc2Cl)c1	41	/	-2.4	73%	-6
S=c1nc(-c2ccccc2)n(CCCn2ccnc2)c2c1CCCC2	2	-30	0.9	-7%	3	Arbovirus inh repeat=-2
Cc1cc(C(=O)Nc2c(F)cc(F)cc2Br)no1	?	5	0.0	16%	5
O=C(c1ccc([N+](=O)[O-])cc1)N1CCSC1c1cccc(Cl)c1 (stereo not drawn)	-1	/	0.1	2%	-8
O=S(=O)(NCc1ccco1)N1CCOCC1	0	4	1.8	-2%	3
O=C(O)c1ccc2noc(-c3ccccc3)c2c1	9	-2	-3.3	-3%	10
CCOC(=O)N1CCN(CCC(=O)Nc2cccc(C)c2)CC1	1	/	-0.8	/	/
Cc1c(C)n(Cc2ccccc2)c2ncnc(NCCO)c12	-3	/	2.2	/	/
COC(=O)NNS(=O)(=O)c1ccc(C)cc1	-4	-26	-1.8	-4%	3
Cn1c(COc2cccc3ccccc23)nnc1SCC(=O)OC1CCCCC1	99	/	14	2.3µM*	/
O=C(CN1CCC(n2nnc3cc(F)ccc32)CC1)N1CCc2ccccc2C1	3	-46	4.7	0%	-4
COc1ccc(OC)c(C2C(C(N)=O)=C(C)Nc3nc(CCCO)nn32)c1 (stereo not drawn)	-1	-22	-1.4	-1%	6	Arbovirus inh repeat=5
COc1ccccc1NC(=O)CSc1nnc(Cn2cnc3ccccc32)n1C	3	-48	3.0	-11%	14
CC1C(=O)N2CCCc3cc(NC(=O)C(=O)NCCc4c[nH]c5ccccc45)cc1c32 (stereo not drawn)	-8	/	3.3	/	/
Cc1ccc(NC(=O)Cn2nnc(C(=O)NCc3cccs3)c2N)cc1Cl	4	/	-0.9	/	/
Cc1ccc(C)c(NC(=O)CSc2ccc(-c3cccs3)nn2)c1	0	-13	-0.7	3%	-11
Next records.
SMILES	Mtb bLac sens	YopH inh	RecA intein inh	Mtb growth	Arbovirus inh	others
Cc1ccc(CSc2ncnc3c2cnn3-c2ccccc2)cc1	12	-21	-0.1	-5%	2
CCOP(=O)(OCC)C(Nc1cccc(C(F)(F)F)c1)c1ccc(Br)cc1 (stereo not drawn)	/	-12	10	12%	20
O=S(=O)(NC(=NC1CCCC1)C(F)(F)F)c1ccccc1	-5	-12	0.4	-3%	2
Cc1ccc(Cl)cc1N1CCN(c2cccc[n+]2C)CC1	2	-22	-1.4	9%	10
CN(CC(=O)Nc1ccccc1Cl)C(=O)COC(=O)c1ccc(Cl)cc1[N+](=O)[O-]	-1	/	3.2	/	/
CCOc1ccc(NC(=O)CN2CCN(Cc3c(F)cccc3F)CC2)cc1	2	/	-0.4	/	/
O=C1OCc2cccc3cccc1c23	-2	-33	0.3	2%	0
CCOc1cc(C)c(S(=O)(=O)N2CCCC2)cc1C	-4	-21	5.3	-17%	-1
CN(C)c1ccc(/C=C(\NC(=O)c2ccccc2)C(=O)NCc2ccncc2)cc1	-1	/	-1.1	/	/
CCN1CCC(NCCc2ccc(F)cc2)CC1	0	/	1.7	/	/
O=C(COc1cc(F)ccc1[N+](=O)[O-])NCCCc1ccccc1	-4	/	0.2	6%	7
CC(NC1CCCC1)c1ccccc1 (stereo not drawn)	4	/	-2.6	-10%	3
O=C(Nc1cccc([N+](=O)[O-])c1)NC1CCS(=O)(=O)C1 (stereo not drawn)	3	/	1.8	/	/
O=C(N/N=C/c1ccc(O)cc1O)/C(=C/c1ccccc1)CCO	5	-35	-17	-6%	-23
O=C(CCN1C(=O)/C(=C/c2ccc3c(c2)OCO3)SC1=S)Nc1cccc(C(=O)O)c1	5	/	-0.7	/	/
O=C(Nc1cccc(Br)c1)c1ccc(CN2CCc3ccccc3C2)cc1	63	/	6.8	/	/
CC(=O)CCn1cc([N+](=O)[O-])nc1C	-4	/	-0.1	4%	/
CC1Cc2nc(SCC(=O)Nc3nc4ccccc4s3)n(C)c(=O)c2S1 (stereo not drawn)	-6	-33	2.1	8%	-2

Screens: PubChem BioAssay, several laboratories

An excerpt; count on the stated rates, not on these rows.
